PrP UTR inh = inhibition of PrP 5' UTR reporter expression. cell-based PrP 5' UTR mRNA reporter, plate reader. inhibition, % (concentration not given with the values). hit rate 0.35% among 340,000. AID 488862, 2010;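 active = every replicate at 50% or more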;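 also: 0 = median of the neutral control wells; tested in H4 reporter cells; numbers are from one replicate; inactives centre near -14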
Mtb hypoxia rep = PubChem AID 1159583. M. tuberculosis hypoxia-regulated fluorescent reporter, fluorescence. fluorescence inhibition, % (no concentration beside the values). hit rate 0.1% among 300,000;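 active = 35 to 45% if threefold the growth effect, above 45% if 1.5-fold the growth effect; inactive = the rest, general growth blockers included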;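 also: wells of about 50 µL received 100 nL stock; 0% = vehicle wells and 100% = reference inhibitor wells; whole bacteria with a GFP reporter of the hypoxia response; strong numbers were not always called active; many hits fall short of the cut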
Autofluor counter = counter-screen for toxin protease inhibitors: compound fluorescence | compound autofluorescence counterscreen, microsphere flow cytometry; hits give high values | fluorescence intensity (concentration not given with the values) | hit rate 3.1% among 360,000;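 active = at least 3 SD above the mean of all compounds, about 16000 in these data; inconclusive = too few beads counted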;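 also: 100 nL of 1 mM stock went into each well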
RN4220 kill = growth inhibition of S. aureus RN4220, primary screen, OD600; 16 h; inhibition, % (test concentration not listed); hit rate 0.33% among 330,000;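 active = z-score of -3 or lower and OD600 up to 0.18 on both plates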;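 also: plate controls were untreated cells for no effect and reference antibiotic for full effect; stock transfer was 100 nL into about 80 µL; one replicate is shown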
BJeLR viability = MLPCN primary cell-based screen for lethality selective to Ras in HRASV12 cells. inhibition, % (no concentration beside the values). AID 1554, 2009. BJeLR (HRASV12) viability, CellTiter-Glo ATP luminescence, 48 h; reference of the scale not given here. hit rate 0.17% among 300,000;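 active = replicate mean above 50%; inconclusive = above 50% but judged a plate artefact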;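 also: 50 nL library stock added to about 25 µL; numbers are from one replicate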
ugtP null kill = growth inhibition of ugtP-null S. aureus, primary screen, RN4220 ugtP deletion, OD600. growth inhibition, % (test concentration not listed). AID 1259309, 2017. 16 h; some inactives read as strong as hits. hit rate 0.54% among 330,000;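 active = z-score under -3 and OD600 up to 0.15 on both plates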;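 also: plate controls were untreated wells for no effect and antibiotic for full effect; wells of about 80 µL received 100 nL stock; the first replicate is given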
Mtb hypoxia rep growth = second read-out of Mtb hypoxia rep, no call of its own (marks repeat the call); growth inhibition, %; measured here: M. tuberculosis growth (absorbance);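 0% = vehicle and 100% = reference antibiotic; read after six days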
Numbers without * were called inactive; ? = inconclusive; . = no result given.

SMILES	PrP UTR inh	Mtb hypoxia rep	Mtb hypoxia rep growth	Autofluor counter	RN4220 kill	BJeLR viability	ugtP null kill
CCN(CC)c1ccc(C(=O)N2CCN(Cc3ccccc3)CC2)cc1	-14.5	20.3	8.7	2600	3.8	-6.6	7.1
N#Cc1ccccc1Oc1ccc(S(=O)(=O)N2CCCCC2)cn1	-38.3	7.0	12.3	?	0.7	-4.6	-0.5
Cc1nn(CC(=O)Nc2ccc3c(c2)nc2n3CCN(C3CCCCC3)C2)c(=O)c2ccccc12	-24.2	-5.0	-1.7	5092	1.0	6.3	4.8
COc1ccc2c(c1OC)C(=O)N(c1ccccn1)C2	-92.0	11.2	8.0	3039	-5.1	7.7	-4.0
Cc1ccc(CNC(=O)CCCCCNc2nc(=S)[nH]c3ccccc23)cc1	.	9.1	15.4	.	3.9	-6.0	2.7
COCC(=O)O[C@]1(CCN(C)CCCc2nc3ccccc3[nH]2)CCc2cc(F)ccc2[C@@H]1C(C)C	7.8	.	.	6207	.	9.3	.
CCOC(=O)CSc1nnc(NC(=O)c2cccc([N+](=O)[O-])c2C)s1	-35.4	14.7	8.8	2104	4.3	15.8	1.0
O=C(COc1ccccc1Cl)Nc1ccc2c(c1)C(=O)NC2=O	-30.0	-4.9	-4.6	4255	3.1	-0.9	-1.6
COc1ccc(CNC(=O)C2CCCN2C)cc1OC (stereo not drawn)	-8.3	-0.5	11.7	5429	1.8	-5.0	5.2
CCOC(=O)c1nc2cc3n(c(C)c-2c1C)C(C)C(CC)=C3C (stereo not drawn)	-36.1	-1.5	4.5	4500	0.5	-3.0	-4.1
Cc1c(CC(=O)O)c(=O)oc2cc(OCc3ccc(Cl)cc3)ccc12	-10.2	6.2	7.0	2948	-2.5	-11.5	1.5
COc1ccc(CNC(=O)COc2ccc(S(=O)(=O)N3CCCCC3)cc2Cl)cc1	-16.4	3.1	13.6	6038	-4.1	-2.0	-0.5
COc1cc(C2N(c3ccccn3)C(=O)C3CCCN32)cc(OC)c1OC (stereo not drawn)	-27.6	9.2	4.7	9917	3.0	-8.6	1.1
O=C1c2cccnc2C(Nc2ccccc2)N1Cc1ccco1 (stereo not drawn)	-16.2	-4.0	7.3	4084	-1.7	-8.5	-8.7
O=C(Cc1c(O)c2ccccc2[nH]c1=O)NC1CCCCCCC1	-15.3	-0.9	6.7	9235	6.5	6.9	-0.4
CCCNC(=S)N1CCC(C(=O)c2ccc(F)cc2)CC1	-13.0	.	.	3734	.	-6.7	.
Cc1ccc(S(=O)(=O)NCCN=C(CN2CCCC2)NS(=O)(=O)c2ccc(C)cc2)cc1	-15.3	5.0	9.0	24857*	4.5	.	-6.9
C[C@]12CCC(=O)CC1=CCC1C3CC=C(C#N)[C@@]3(C)CC[C@@]12O (stereo partly drawn)	-10.5	-4.9	10.4	4748	3.8	-0.6	3.4
COc1ccc([N+](=O)[O-])cc1C1NN=C(c2ccccc2O)S1 (stereo not drawn)	-27.9	4.6	-1.0	10508	3.6	-9.7	-2.8
C[C@@H](NC(=O)C1(c2ccccc2)CCN(C(=O)OC(C)(C)C)CC1)C(=O)N[C@@H](C(=O)O)c1ccccc1	-0.3	.	.	5237	1.4	-1.5	2.5

Whole records, looked up by structure.
`CCN(CC)c1ccc(C(=O)N2CCN(Cc3ccccc3)CC2)cc1` is entered as PrP UTR inh = -14.5; Mtb hypoxia rep = 20.3; Mtb hypoxia rep growth = 8.7; Autofluor counter = 2600; RN4220 kill = 3.8; BJeLR viability = -6.6; ugtP null kill = 7.1
`O=C1c2cccnc2C(Nc2ccccc2)N1Cc1ccco1` (stereo not drawn) is entered as PrP UTR inh = -16.2; Mtb hypoxia rep = -4.0; Mtb hypoxia rep growth = 7.3; Autofluor counter = 4084; RN4220 kill = -1.7; BJeLR viability = -8.5; ugtP null kill = -8.7

Entries listed so far that have a nitro group on carbon (2):
SMILES	PrP UTR inh	Mtb hypoxia rep	Mtb hypoxia rep growth	Autofluor counter	RN4220 kill	BJeLR viability	ugtP null kill
CCOC(=O)CSc1nnc(NC(=O)c2cccc([N+](=O)[O-])c2C)s1	-35.4	14.7	8.8	2104	4.3	15.8	1.0
COc1ccc([N+](=O)[O-])cc1C1NN=C(c2ccccc2O)S1 (stereo not drawn)	-27.9	4.6	-1.0	10508	3.6	-9.7	-2.8

The results go on:
SMILES	PrP UTR inh	Mtb hypoxia rep	Mtb hypoxia rep growth	Autofluor counter	RN4220 kill	BJeLR viability	ugtP null kill
NCCCCNCCCN	-8.5	.	.	5348	.	4.4	.
COCc1cc(C)nc(SCC(=O)Nc2ccc3c(c2)n(C)c(=O)n3C)c1C#N	-4.5	0.9	-5.8	4673	2.8	-4.8	7.0
CC(=O)c1cn(CC(=O)Nc2ccccc2C)c2ccccc12	-3.7	-0.8	-4.6	2426	1.8	12.6	-11.9
COc1ccc(NC(=O)c2cc(-c3cc(C)cc(C)c3O)n[nH]2)cc1Cl	-10.9	12.5	8.8	5570	49.8	0.3	89.5*
O=C(CC(c1ccccc1)c1ccccc1O)N1CCCC1 (stereo not drawn)	-14.5	8.3	6.6	2810	-13.6	6.5	-5.3
COc1ccc2oc(=O)c(-c3csc(Nc4cccc(O)c4)n3)cc2c1	-84.8	8.6	12.2	2048	36.2	-10.3	18.3
NS(=O)(=O)c1ccc(NC(=O)/C=C/c2cn(-c3ccccc3)nc2-c2cccc(Cl)c2)cc1	-6.1	-3.8	-2.6	3401	-31.1	-5.2	-9.7
Cc1ccc(S(=O)(=O)NNC(=O)c2sc(=S)n(C)c2C)cc1	-4.7	-3.3	-3.5	10093	9.1	-13.9	5.3
CSCC(O)Cn1ncc2ccccc2c1=O (stereo not drawn)	-0.7	8.6	7.8	6489	4.7	4.8	6.3
Cc1ccc(C(=O)COC(=O)CNC(=O)C(c2ccccc2)c2ccccc2)cc1[N+](=O)[O-]	-3.2	9.6	3.8	4606	1.6	7.9	11.6
c1ccc(Oc2ncnc3oc(-c4ccccc4)cc23)cc1	-35.2	.	.	2726	0.2	2.7	-15.0
Cc1cccc(OCCCCNCc2ccccc2)c1	-26.3	7.8	8.9	4912	0.6	8.2	-0.7
Cc1nc2cc(S(=O)(=O)N3CCC(C(=O)O)CC3)ccc2n1C1CCCC1	-23.1	-1.8	-0.4	3183	-11.2	9.5	3.7
O=C(Nc1cccc(NC(=O)c2ccc(Br)o2)c1)c1ccccc1	-6.9	-1.4	-1.3	4000	2.7	-19.2	-2.7
Cc1cccc(N=Cc2c(O)cc(C)oc2=O)c1	-8.6	11.8	4.9	3644	9.1	3.6	-3.7
O=C(CSc1nnc(-c2ccncc2)o1)Nc1cccc(F)c1	-46.2	-14.9	-10.8	.	1.5	-0.5	6.4
O=C(O)c1cccc(-c2noc(-c3cccc(Cl)c3)n2)c1	81.5*	2.7	3.1	4041	18.9	.	9.4
Cc1cccn2cc(CCNC(=O)c3ccco3)nc12	-21.4	-0.4	6.1	6666	-13.9	6.1	-1.7
CC(C)(C)c1ccc(Oc2ccc(NC(=O)CCCC(=O)O)cn2)cc1	-21.7	11.6	14.4	.	6.2	-0.7	2.9
CC[C@]1(c2cccc(C)c2)C(=O)N(C(=O)OC)N1C(=O)OC	-24.9	22.9	12.3	3641	5.7	-11.7	3.2

The final 2 entries of the section above are carried over, then new ones follow.
SMILES	PrP UTR inh	Mtb hypoxia rep	Mtb hypoxia rep growth	Autofluor counter	RN4220 kill	BJeLR viability	ugtP null kill
CC(C)(C)c1ccc(Oc2ccc(NC(=O)CCCC(=O)O)cn2)cc1	-21.7	11.6	14.4	.	6.2	-0.7	2.9
CC[C@]1(c2cccc(C)c2)C(=O)N(C(=O)OC)N1C(=O)OC	-24.9	22.9	12.3	3641	5.7	-11.7	3.2
CC(=O)Oc1ccc(C(=O)c2ccccc2)c(OC(C)=O)c1	-23.3	11.8	2.5	3024	1.8	5.1	-12.1
CC(C)Oc1ccc2nnnn2n1	-4.7	.	.	3914	5.6	-3.5	7.2
CC12CC(O)C3c4ccc(O)cc4CCC3C1CCC2=NO (stereo not drawn)	.	3.3	4.7	.	0.7	.	8.9
CCn1cnc2c1c(=O)n(CC(=O)N1CCc3ccccc31)c(=O)n2Cc1ccccc1	-23.4	7.1	5.9	3341	2.1	-4.4	6.2
O=C1NC(=O)C(C(CC(=O)c2ccccc2)c2ccccc2)C(=O)N1 (stereo not drawn)	-30.5	-1.6	-0.2	4292	2.1	.	3.2
C=CCNC(=O)/C(C#N)=C/c1c(N(Cc2ccccc2)Cc2ccccc2)nc2ccccn2c1=O	-23.6	.	.	10667	.	-1.2	.
Cc1ccc(S(=O)(=O)N2CCCOC2CNC(=O)C(=O)NCc2ccccc2C)cc1 (stereo not drawn)	-5.0	-3.6	2.0	4475	-2.7	-7.6	-3.8
O=C1CCCc2c1nc(-c1ccco1)n2O	-7.7	.	.	4486	3.1	0.6	5.2
CCCCN1C(=O)C(=O)c2cc(Cl)ccc21	-29.4	-10.5	-2.2	3502	7.1	.	-21.0
CC(=NNc1ccc(S(=O)(=O)N2CCCCC2)cn1)c1cccc(Br)c1	.	-11.7	1.5	.	-3.8	.	-24.8
CC1SCC(=NOCc2c(Cl)cccc2Cl)CS1 (stereo not drawn)	-19.2	13.6	15.4	3283	3.8	-8.1	49.5
COc1ccc(CCNC(=O)CSc2nccc(=O)[nH]2)cc1OC	-1.2	12.0	0.5	3443	4.7	2.8	2.4
N=C1/C(=C\c2ccc(-c3cccc(C(=O)O)c3)o2)C(=O)N=C2SC=C(c3ccccc3)N12	-31.2	7.0	-0.8	3902	41.3	-11.8	20.4
Fc1ccccc1N1CC(c2ccccc2)C(c2cccs2)=N1 (stereo not drawn)	-19.5	5.7	1.3	10417	-15.6	7.4	24.2
CCCCn1c(N)c(N(CC(C)C)C(=O)c2ccc(F)c(S(=O)(=O)N3CCOCC3)c2)c(=O)[nH]c1=O	-35.8	-0.2	4.9	5660	0.1	1.5	6.3
COC(=O)c1sccc1NC(=O)c1ccc(OC)cc1OC	-0.3	2.1	1.3	2334	3.7	0.8	0.9
CCCNC(=O)Nc1ccccc1C(=O)Nc1ccc(OC)cc1	-25.4	11.3	12.7	3727	3.6	0.1	5.3
O=C(CN1CCN(S(=O)(=O)N2CCCCC2)CC1)Nc1cc(Cl)cc(Cl)c1	-16.9	6.3	0.1	3580	2.7	-3.5	-5.7
Cc1ccccc1S(=O)(=O)N(CC(O)CN1C(=O)NC(C)(C)C1=O)c1ccccc1 (stereo not drawn)	-22.4	2.1	-11.7	4412	4.7	-0.9	11.8
CCN1CCN(CC(=O)Nc2sc3c(c2C#N)CCC(C)C3)CC1 (stereo not drawn)	-3.0	13.1	12.5	3293	2.0	2.2	2.2
COC(=O)c1ccccc1NC(=O)Cn1c(=O)n(Cc2ccccc2)c(=O)c2c(C)c(C)sc21	-7.1	0.6	-4.9	2493	-5.0	-14.2	2.4
N#Cc1cccc(S(=O)(=O)NCC(=O)NCCCc2ccccc2)c1	-17.5	19.3	6.1	5774	-0.5	-17.2	6.3
COc1cc2[nH]c3c(=O)n(N)c(=O)[nH]c3c2cc1OC	-7.6	-1.0	-1.8	3664	5.3	7.5	0.2
ClCCN(CCCl)c1ccc(C2=NCCc3ccccc32)cc1	-38.9	-1.0	4.3	3612	5.9	.	-8.0
Clc1ccc(C2C3CN(CC4CCCCC4)C(c4ccccc4)C34CC2(c2ccccc2)C4)cn1 (stereo not drawn)	.	13.9	16.0	.	-11.7	.	-0.9
COc1ccccc1NC(=O)COC(=O)c1[nH]c(=O)[nH]c(=O)c1N	-2.5	-0.6	1.1	3759	1.4	.	-3.7
Cc1c(C(=O)N2c3ccccc3Sc3ccccc32)cccc1[N+](=O)[O-]	-35.1	6.9	2.9	1981	0.9	-8.3	9.6
Nc1ccc(Oc2ccc(F)cc2)nc1	-19.2	.	.	4448	.	2.2	.
COc1cc2c(cc1OC)C(C)NCC2 (stereo not drawn)	50.0	3.4	-0.2	5803	4.1	.	-1.7
CC(=O)Nc1ccc(S(=O)(=O)N(C)CC(=O)NC2CCCCCCC2)cc1	-23.2	-12.9	7.5	4119	-3.5	.	-0.9

Screening results as filed in PubChem BioAssay.
